# AID923 = qHTS Assay for Allosteric/Competitive Inhibitors of Caspase-1: Spectroscopic Profiling in AFC Spectral Region; compound fluorescence, AFC spectral region (405/520 nm); almost no hit is shown here; Potency, µM (highest dose often 57.5 µM), for inactives: at the highest dose fluorescence increase, usual class: activators; hit rate 1.1% among 75,000; AID 923, 2007; active = well fitted activation curve with a large enough effect; inconclusive = small, poorly fitted or top-dose-only effect;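 note: potency is the fitted concentration of half-maximal effect; 0% is about no effect; scaled to a free AFC standard on each plate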
#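 Compound autofluorescence profiled at 405 nm ex/520 nm em during kinetic caspase 1 run (50 nM enzyme, 5 uM Ac-WEHD-AFC, HEPES pH 7.5, 10 mM DTT). Titration up to 57 uM; baseline from regression intercept, normalized to AFC standard curve.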
# Resorufin autofl = compounds fluorescent in resorufin spectral region; Compound fluorescence, resorufin region 547/598 nm, buffer; active compounds read high; max dye-equivalent concentration, M; hit rate 0.04% among 59,000; active = above 10 nM dye equivalent; inconclusive = 1 to 10 nM; inactive = 1 nM or less; a few of its hits are not listed in these tables; note: highest value over a series up to 38 µM
#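 Tris 100 mM pH 8.0; compound added, 15 min RT; CCD imager read, ex 547 nm/em 598 nm; signal normalized to resorufin standard curve (six concentrations per plate) as dye-equivalent concentration.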
# TSHR ag = agonists of human thyroid stimulating hormone receptor. HEK293-CNG-TSHR cells (CNG channel as cAMP sensor), membrane potential dye, cAMP. Potency, µM (series often up to 57.1 µM), for inactives: top-dose activation, most hits filed as activators. P16473. hit rate 0.48% among 73,000; active = well fitted activation curve of enough size with the parental cells flat; inconclusive = any curve in the parental cells; inactive = parental cells flat and receptor cells flat or falling; note: potency is the fitted concentration of half-maximal effect; % of control where 0% means no effect; weak receptor curves with flat parental cells got no call and are not listed
# Target sequence (P16473 whole entry, looked up): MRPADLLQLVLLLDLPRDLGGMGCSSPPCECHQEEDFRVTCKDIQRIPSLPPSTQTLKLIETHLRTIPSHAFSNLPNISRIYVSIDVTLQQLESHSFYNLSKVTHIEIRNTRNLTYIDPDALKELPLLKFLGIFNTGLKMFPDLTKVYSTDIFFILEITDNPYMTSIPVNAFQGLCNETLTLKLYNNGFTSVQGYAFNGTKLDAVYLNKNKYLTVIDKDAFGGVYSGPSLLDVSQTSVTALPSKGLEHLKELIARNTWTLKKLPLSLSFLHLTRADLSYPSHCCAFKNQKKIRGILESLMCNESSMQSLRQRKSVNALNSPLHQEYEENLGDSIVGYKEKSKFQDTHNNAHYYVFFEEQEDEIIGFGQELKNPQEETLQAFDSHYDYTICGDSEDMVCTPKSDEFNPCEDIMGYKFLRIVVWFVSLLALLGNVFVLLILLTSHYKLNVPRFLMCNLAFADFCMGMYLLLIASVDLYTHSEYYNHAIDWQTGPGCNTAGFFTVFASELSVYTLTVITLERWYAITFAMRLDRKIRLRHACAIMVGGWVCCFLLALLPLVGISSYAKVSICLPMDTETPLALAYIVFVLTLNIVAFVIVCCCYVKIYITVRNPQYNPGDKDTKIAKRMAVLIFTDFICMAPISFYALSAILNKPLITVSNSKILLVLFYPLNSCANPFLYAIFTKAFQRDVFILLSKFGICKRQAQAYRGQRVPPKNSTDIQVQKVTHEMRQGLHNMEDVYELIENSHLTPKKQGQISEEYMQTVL
#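 HEK 293 cells stably expressing TSHR and a modified CNG channel, with CNG-only parental cells as counterscreen, were preloaded 60 min at room temperature with membrane potential dye containing 100 uM RO 20-1724. Compound exposure was 30 min, and depolarization was read as fluorescence at 590 nm.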
# A488 fluor = A488 region autofluorescence; AID 591; hit rate 0.1% among 59,000; max dye equivalency, M; compound autofluorescence, A488 spectral region, dye equivalency; active compounds read high; active = above 10 nM dye equivalent; inconclusive = 1 to 10 nM; inactive = 1 nM or less; about half of its hits are not listed in these tables;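 note: highest value over a series up to 38 µM; compound alone in buffer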
#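 Compounds pin-transferred into 100 mM Tris buffer, pH 8.0, incubated 15 min at room temperature, then imaged with 480 nm excitation/540 nm emission filters. Fluorescence converted to Alexa 488 dye-equivalent concentration via an on-plate six-point A488 standard curve.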
# A647 fluor = compound fluoresces in the A647 spectral region; Compound fluorescence, A647 channel (570/671 nm), Tris buffer; max dye-equivalent concentration, M; 59,000 tested, under 10 active; active means above 1 µM dye equivalent; inconclusive means 0.1 to 1 µM; inactive means 0.1 µM or less;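 note: values scaled relative to a standard on each plate; highest value over a series up to 38 µM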
#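 Each compound's intrinsic fluorescence at 570 nm excitation and 671 nm emission is measured across its concentration series in 100 mM Tris, pH 8.0, after 15 min at room temperature, and reported relative to an A647 curve.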
# Numbers without * were called inactive; i = inactive; ? = inconclusive; nt = not tested or not shown; [ ] = remark or other dose. Not all compounds are listed (hit frequency here may not be typical).
# Values in the order – AID923	Resorufin autofl	TSHR ag	A488 fluor	A647 fluor
1) CCOC(=O)c1ccc2c(c1)nc(SC/C(O)=C(\C#N)c1nc3ccccc3[nH]1)n2CC
    4.6%	i	25%	i	3.7e-08
2) CC(=O)N1CCc2c(sc(NC(=O)CN3C(=O)CCC3=O)c2C(N)=O)C1
    2.3%	nt	-4%	nt	nt
3) COc1ccc(-c2nc3cnc(N(C)C)nc3n(-c3ccccc3)c2=O)cc1
    2µM*	i	20%	i	7.8e-09
4) O=C(O)c1cc(=O)[nH]c(=S)[nH]1
    2.3%[11.5 µM]	i	2%[11.4 µM]	i	1e-09
5) Cc1ccc(-c2cc(C(F)F)nc(N3CCC(C)CC3)n2)cc1
    1.4%	i	6%	i	1e-09
6) CCCS(=O)(=O)NCc1cn2cccc(C)c2n1
    1.5%	i	-5%	i	1.7e-08
7) O=C(CSc1nnc(COc2ccc3c(c2)CCCC3)o1)Nc1ccc(F)cc1
    0.0%	nt	-7%[11.4 µM]	nt	nt
8) CCC(C)(C)C
    0.2%	nt	?	nt	nt
9) COc1ccc(N(C(=O)c2cccc(OC)c2OC)C2C=CS(=O)(=O)C2)cc1 (stereo not drawn)
    0.5%	i	-4%	i	1.4e-09
10) CN1CCN(c2ncnc3ccc(-c4ccccc4C(F)(F)F)cc23)CC1
    0.0%	i	?	i	9.8e-09
11) CCc1nnc(NC(=O)C2CCCN2C(=O)NC2CCCCC2)s1 (stereo not drawn)
    0.4%	i	0%	i	1e-09
12) O=S(=O)(Nc1nc2ccccc2nc1NCCN1CCOCC1)c1cccc(Cl)c1
    0.1%	i	13%	i	1.5e-08
13) COc1ccc(C2CC(=O)c3cnc(NC(=O)c4cccc(OC)c4)nc3C2)cc1 (stereo not drawn)
    -1.0%	i	?	i	1e-09
14) Cc1onc(-c2ccccc2Cl)c1C(=O)OCn1nnc2ccccc2c1=O
    0.0%	nt	?	nt	nt
15) Cn1c(/C=N/c2nc3ccccc3[nH]2)nc2ccccc21
    -0.3%	i	?	i	3.7e-08
16) O=C(NC1CCCCC1)C1CCN(S(=O)(=O)N2CCOCC2)CC1
    0.5%	i	-1%	i	1.5e-09
17) CCOc1ccccc1OCCOCCN1CC(C)OC(C)C1 (stereo not drawn)
    -0.1%	i	1%	i	1e-09
18) Cc1c(NC(=O)C(C)N2C(=O)c3ccccc3C2=O)c(=O)n(-c2ccccc2)n1C (stereo not drawn)
    -0.9%	nt	12%	nt	nt
19) COC(=O)c1[nH]c2cc(OC)ccc2c1NC(=O)CN1CCC(C(N)=O)CC1
    nt	i	nt	i	4.8e-09
20) COC(=O)C(Cc1ccc(O)cc1)NC(=O)CCC(=O)Nc1ccc(S(N)(=O)=O)cc1 (stereo not drawn)
    0.3%	i	4%	i	1e-09
21) O=C(O)c1cc(=O)c2c(Cl)cc(Cl)cc2[nH]1
    -2.3%	i	?	i	2.1e-08
22) Cc1cc(-n2nc(C)cc2C)nc(N)n1
    -0.1%	i	?	i	1e-09
23) O=C(O)[C@@H]1CCCNC1
    -4.0%[25.7 µM]	i	15%[25.6 µM]	i	5.6e-08
24) O=C(CN1CCN(c2ccc(F)cc2)CC1)Nc1nnc(-c2ccccc2)s1
    -0.7%	i	-3%	i	2.9e-08
25) CCC(OC(=O)c1ccco1)C(=O)NCc1ccc(C)cc1 (stereo not drawn)
    0.8%	i	?	i	1e-09
26) CCC(Oc1ccccc1)C(=O)Nc1nnc(C(F)(F)F)s1 (stereo not drawn)
    -1.2%	i	?	i	1e-09
27) CCOC(=O)c1c(NC(=O)CSc2nnc(C)c(=O)[nH]2)sc2c1CCC2
    4.4%	i	?	i	1e-09
28) CCCNC(=O)N1CCN(c2ncccn2)CC1
    -1.1%	i	50%	i	2.2e-08
29) O=C(CN1CCC(O)(c2ccc3c(c2)OCO3)CC1)OC1CCCCC1
    1.6%	i	11%	i	1e-09
30) CCCn1nnc(NC(=O)c2ccc(OCC)c(Cl)c2)n1
    -1.7%	i	0%	i	1e-09
31) C=C(C)CSc1nnc([C@@H](NC(=O)OC(C)(C)C)C(C)CC)o1 (stereo partly drawn)
    -0.5%	i	?	i	1e-09
32) CN(C)c1nc(N)nc(-c2ccco2)n1
    2.1%	nt	-9%	nt	nt
33) O=C(CN1CCC(n2nnc3cc(F)ccc32)CC1)Nc1ccccc1N1CCOCC1
    -0.9%	i	2%	i	1e-09
34) CCC(CC)C(=O)Nc1cc(NC(=O)C(CC)CC)cc(C(=O)O)c1
    -4.0%	i	-1%	i	2.6e-08
35) O=c1c2ccccc2nc(-c2ccccc2)n1CCN1CCOCC1
    0.8%	i	?	i	1e-09
36) CSc1nc(N2CCN(CCO)CC2)c2sc3nc(-c4ccco4)c4c(c3c2n1)CCC4
    -0.5%	i	nt	i	1e-09
37) COc1ccc(CN2CC(C(=O)NCCCN3CCN(Cc4ccccc4)CC3)CC2=O)cc1 (stereo not drawn)
    0.0%	i	-2%	i	4.4e-08
38) O=C(NCCC1=CCCCC1)c1cnccn1
    7.7%	i	11%	i	1.6e-08
39) Cc1ccc(Nc2nnc(-c3ccc4c(c3)OCO4)o2)c(C)c1
    2.9%[11.5 µM]	i	-2%[11.4 µM]	i	1e-09
40) O=C1Nc2ccccc2C12OCC1(CO2)COC2(OC1)C(=O)Nc1ccccc12 (stereo not drawn)
    -0.4%	i	-2%	i	5.4e-09
41) C=C[C@@]1(C)CC(=O)[C@@]2(O)[C@@]3(C)[C@H](O)CCC(C)(C)[C@@H]3[C@H](O)[C@H](OC(C)=O)[C@]2(C)O1
    -1.8%	i	?	i	1.4e-08
42) COc1cccc(N2CC34C=CC(O3)C(C(=O)O)C4C2=O)c1 (stereo not drawn)
    1.7%	i	-1%	i	2.7e-09
43) COC(=O)CCS(=O)(=O)c1ccc(Cl)c(Cl)c1
    0.7%	i	0%	i	3.3e-09
44) O=C(N1CCOCC1)N(Cc1ccco1)CC1CCCO1 (stereo not drawn)
    0.7%	i	7%	i	3.3e-08
45) CCN1C(=O)c2ccc(C(=O)O)cc2C1=O
    0.7%	i	14%	i	4.6e-09
46) Cc1cccc(NC(=O)Cn2cnc3ccc(S(=O)(=O)N4CCC(C)CC4)cc3c2=O)n1
    2.8%	i	-6%[11.4 µM]	i	2.3e-09
47) Cc1cccc(-c2nnn(CC/C(N)=N/O)n2)c1
    0.2%	i	-3%	i	1e-09
48) CC(C)CCOCC1CC2(CC(C)(c3csc(N)n3)OC2=O)C(=O)O1 (stereo not drawn)
    1.8%	nt	-3%	nt	nt
49) COC(=O)Cc1c(C)nc2nc(Cc3ccccc3)[nH]n2c1=O
    -2.0%	i	1%	i	4e-09
50) COC(=O)c1ccc(CSc2nc3c(cnn3-c3ccc(F)cc3)c(=O)[nH]2)o1
    2.8%	i	19%	i	1.4e-08
51) O=C(COC(=O)Cn1cnc2ccccc21)NCCc1ccccc1
    -0.7%	i	0%	i	1.4e-09
52) O=C(NCCCn1ccnc1)c1cn(-c2ccccc2)nc1-c1ccccc1
    1.3%	i	-1%	i	4.1e-09
53) C=CCOC(=O)C1=C(C)NC(SCC(=O)N(CC)CC)=C(C#N)C1c1ccco1 (stereo not drawn)
    nt	i	nt	i	1e-09
54) COc1ccc(-c2nn3cnnc3s2)cc1OC
    -4.0%	i	11%	i	1.7e-08
55) CC1(C)Cc2ccccc2-c2nc3ccccc3c(=O)n21
    -3.6%	nt	?	nt	nt
56) O=C(CN1CCN(c2ccc(F)cc2)CC1)Nc1ccc(F)c(F)c1
    0.4%	i	-5%	i	3e-08
57) CC1(C)CC(=O)C=C(NC2CC(C)(C)NC(C)(C)C2)C1
    -0.4%	nt	?	nt	nt
58) O=C(O)c1nnsc1-c1csnn1
    -2.7%[11.5 µM]	i	3%[11.4 µM]	i	1e-08
59) Cn1c(=O)c2[nH]c(CCCCc3nc4ccccc4[nH]3)nc2n(C)c1=O
    -2.0%[11.5 µM]	i	3%[11.4 µM]	i	4.7e-08
60) O=C(CC1C(=O)NCCN1C(=O)Nc1ccccc1)Nc1ccc2c(c1)OCO2 (stereo not drawn)
    -1.7%	i	-1%	i	7.3e-09

# Following part.
# Values in the order – AID923	Resorufin autofl	TSHR ag	A488 fluor	A647 fluor
61) O=C(NCCN1CCCCCC1)C1CC(=O)N(CCc2ccccc2)C1 (stereo not drawn)
    0.5%	i	18%	i	6.4e-09
62) Cc1cc(C)nc(Nc2n[nH]c(Cc3ccccc3)n2)n1
    0.7%	i	6%	i	6.9e-08
63) COCCNC(=O)CSc1nc2cc(OC)c(OC)cc2c(=O)n1CCC1=CCCCC1
    0.0%	i	7%	i	1.2e-08
64) Cc1ccc(S(=O)(=O)N2CCC(C(=O)OCC(=O)N3CCc4ccccc43)CC2)cc1
    -2.2%	i	12%	i	8.3e-09
65) COc1cc(OC)c(C2N(c3ccc(Cl)cc3)C(=O)C3CCCN32)cc1OC (stereo not drawn)
    -1.0%	nt	18%	nt	nt
66) O=C(/C=N/O)Nc1ccccc1
    0.5%	i	2%	i	1e-09
67) COC(=O)C1CCN(C(c2ccc(OC)c(OC)c2)c2sc3nc(C)nn3c2O)CC1 (stereo not drawn)
    -1.6%	nt	-6%	nt	nt
68) O=C(NC1CCCC1)C1CCC(=O)N1C1CCCC1 (stereo not drawn)
    -2.6%	i	-3%	i	1e-09
69) CC1(C)CC2(CCO1)CNC(=O)O2 (stereo not drawn)
    -0.7%	nt	-1%	nt	nt
70) CCSc1nnc(NC(=O)c2cnccn2)s1
    0.2%	nt	?	nt	nt
71) c1ncc(-c2ccoc2)c(NC2CC2)n1
    6.3%	i	?	i	3.1e-08
72) Cc1cccc(C2N(c3nccs3)C(=O)C3CCCN32)c1 (stereo not drawn)
    0.7%	i	7%	i	1e-09
73) O=S(=O)(Nc1ccccc1Cl)c1ccc(F)cc1
    -0.5%	i	nt	i	1e-09
74) C=CCn1c(SCc2cc(=O)n3ccsc3n2)nc2sc(C)c(C)c2c1=O
    -2.3%	i	nt	i	4.4e-08
75) O=C(OCc1nnc(-c2ccccc2)o1)c1cn(-c2ccccc2)nc1-c1ccccc1
    0.4%	i	28%	i	2.7e-08
76) C=CCn1c(COc2ccccc2F)nnc1SCC(=O)N1CC(=O)Nc2ccccc21
    1.8%	i	8%	i	1e-09
77) Cc1ccc(S(=O)(=O)C(C#N)c2nc3ccccc3nc2N2CCCC2)cc1 (stereo not drawn)
    20%	i	14%	i	5.9e-09
78) COc1ccc(-c2nn(-c3ccccc3)cc2C(=O)N2CCOCC2)cc1
    -0.7%	i	4%	i	3.2e-09
79) CSc1ncccc1C(=O)OCC(=O)Nc1cc(C(F)(F)F)ccc1N1CCOCC1
    -0.6%	i	?	i	1.1e-08
80) O=C(c1cc2nc(-c3ccco3)cc(C(F)(F)F)n2n1)N1CCCc2ccccc21
    3.2%	i	16%	i	1e-09
81) CN(C)C(CNC(=O)CSc1nnc(-c2ccco2)o1)c1ccccc1 (stereo not drawn)
    0.3%	i	2%	i	3.9e-08
82) COc1ccc(NC(=O)N2CCCC3(CCNCC3)C2)cc1
    -0.9%	i	-3%	i	4.1e-09
83) O=C(COC(=O)Cc1cn2ccsc2n1)Nc1nc2ccccc2s1
    -2.7%	i	7%	i	8.9e-09
84) CCCc1cc(C(=O)NCCc2ccc(OC)c(OC)c2)no1
    -0.7%	nt	6%	nt	nt

# Compound activity: PubChem BioAssay, National Center for Advancing Translational Sciences (NCATS)
